Screening data from PubChem.
ClpP mod = qHTS Assay for Activators of ClpP. ATP-dependent Clp protease proteolytic subunit (Bacillus subtilis (strain 168)), P80244. purified B. subtilis ClpP, FRET peptide cleavage, 20 min. Potency, µM (titrated, usually from 57.5 µM), for inactives: top-dose activity change, negative = active. 340,000 compounds, 1.9% hits; active = well fitted falling curve with a large enough effect; inconclusive = small, poorly fitted or top-dose-only effect; inactive = no such curve, though single readings can be large or run the other way; also: potency is read from the fitted curve at half-maximal effect; the source files actives as falling curves though it sought activators and does not explain the sign; nearly all actives have a fitted effect of over 65% in size; many hits overshoot -100%
Target sequence (P80244 whole entry, looked up): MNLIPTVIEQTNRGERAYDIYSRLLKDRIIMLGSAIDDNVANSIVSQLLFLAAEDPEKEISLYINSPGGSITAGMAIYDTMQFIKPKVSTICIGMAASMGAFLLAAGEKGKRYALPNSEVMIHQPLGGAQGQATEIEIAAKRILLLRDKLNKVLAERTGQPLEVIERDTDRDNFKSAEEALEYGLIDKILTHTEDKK
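Buffer: 100 mM Tris/HCl pH8, 100 mM KCl, 0.05% low protease BSA, 2.5% glycerol, 0.01% Tween-20. ClpP 10 microg/mL final; 20 min RT; delta FRET normalized to ADEP and DMSO controls.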
Sfp PPTase inh = qHTS Assay for Inhibitors of Bacillus subtilis Sfp phosphopantetheinyl transferase (PPTase); Biochemical Sfp PPTase activity, qHTS; Potency, µM, inactives show max response, negative = inhibition, usual class: inhibitors; 310,000 compounds, 3.5% hits; AID 1490, 2009; active = well fitted inhibition curve with a large enough effect; inconclusive = small, poorly fitted or top-dose-only effect, or another doubt; inactive = no such curve, though single readings can be large or run the other way;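 also: the enzyme is Sfp with the accession as filed and its product quenches rhodamine fluorescence; potency is read from the fitted curve at half-maximal effect; 0% = enzyme reaction without inhibitor and -100% = no enzyme wells; top concentration of the series not given in the record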
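Step 1, compound plus 15 nM Sfp-PPTase, 15 min, room temperature. Step 2, add rhodamine-CoA (5 uM) and BHQ-2-YbbR (12.5 uM). Step 3, read 525/598 nm fluorescence at 0 and 30 min.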
gsp antag = qHTS for Antagonists of gsp, the Etiologic Mutation Responsible for Fibrous Dysplasia/McCune-Albright Syndrome: qHTS. Potency, µM (highest dose often 76.9 µM), without a hit: top-dose activity change, negative = inhibition, actives largely listed as inhibitors. gsp-mutant cells, cAMP HTRF, 30 min; control for the full effect not named in the record. AID 624288, 2012. 340,000 compounds, 0.4% hits; active = falling curve of any shape with a large fitted effect; inconclusive = falling curve, mostly with a smaller effect; inactive = flat or rising curve; cell line not stated here;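 also: intracellular cAMP measured with PDE inhibitor Ro 20-1724 present during compound exposure; potency is read from the fitted curve at half-maximal effect; % is scaled to controls: 0 for no effect and ±100 for the full control effect; nearly all actives have a fitted effect of over 65% in size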
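Cells in G418 medium, seeded 16-24 h, 37C; buffer exchange to DPBS + 1 mM CaCl2, 0.5 mM MgCl2, 0.05% BSA; cpds in DMSO + […] (300 uM stock), 30 min 37C; HTRF cAMP detection.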
gsp ag = qHTS for Agonist of gsp, the Etiologic Mutation Responsible for Fibrous Dysplasia/McCune-Albright Syndrome: qHTS; gsp mutant cells, cAMP HTRF, 30 min; control for the full effect not named in the record; Potency, µM (titrated, usually from 76.9 µM), for inactives: at the highest dose activation (cAMP increase), most hits filed as activators; 340,000 compounds, 0.13% hits; active = well fitted activation curve with a large enough effect; inconclusive = small, poorly fitted or top-dose-only effect, or another doubt; inactive = no such curve, though single readings can be large or run the other way; cell line not stated here;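 also: phosphodiesterase inhibitor Ro 20-1724 added with compounds to block cAMP breakdown; potency is read from the fitted curve at half-maximal effect; nearly all actives have a fitted effect of over 60% in size; about a fifth of the inactives were tested at one dose only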
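Cells in DMEM/10% FBS with G418 were pretreated with compounds in DMSO plus […] (300 uM stock) for 30 min at 37C. cAMP was measured by HTRF (cAMP-d2 plus anti-cAMP antibody-K) after 30 min at room temperature.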
D2 PAM = Beta-Arrestin HTS for Positive Allosteric Modulators of the Human D2 Dopamine Receptor: Potentiators; D(2) dopamine receptor (Homo sapiens), P14416; DiscoveRx D2 beta-arrestin cells, luminescence, 90 min; 100% = 57 uM dopamine signal; potentiation, % (concentration not given with the values); 360,000 compounds, 0.23% hits; AID 624464, 2012; active = potentiation of 50% or more; inconclusive = 30% to 50%; inactive = 30% or less;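 also: tested on top of an EC20 dose of dopamine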
Target sequence (P14416 whole entry, looked up): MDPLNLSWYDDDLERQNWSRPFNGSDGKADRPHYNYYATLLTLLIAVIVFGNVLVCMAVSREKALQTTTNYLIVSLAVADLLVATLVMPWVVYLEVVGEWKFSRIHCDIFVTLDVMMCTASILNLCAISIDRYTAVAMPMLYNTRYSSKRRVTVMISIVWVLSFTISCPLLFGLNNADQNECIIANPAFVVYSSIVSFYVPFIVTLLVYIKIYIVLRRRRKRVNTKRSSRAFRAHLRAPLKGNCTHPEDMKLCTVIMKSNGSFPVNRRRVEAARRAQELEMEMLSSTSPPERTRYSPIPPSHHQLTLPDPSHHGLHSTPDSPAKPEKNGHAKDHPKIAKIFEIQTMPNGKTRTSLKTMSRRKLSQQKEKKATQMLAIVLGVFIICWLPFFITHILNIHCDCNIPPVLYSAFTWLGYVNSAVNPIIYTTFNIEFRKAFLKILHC
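PathHunter beta-arrestin assay in DiscoveRx D2 cells. Compounds were added with an EC20 of dopamine (50 nM final) for 90 min at 37 deg C. Luminescence was read 1 h after detection reagent, with 57 uM dopamine as the EC100 control.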
Menin MLL FP FL = qHTS Assay for Inhibitors Targeting the Menin-MLL Interaction in MLL Related Leukemias: Competition With Fluorescein Labeled MLL-derived Peptide; FP activity change, % at 61.4 µM; Fluorescence polarization, fluorescein-MLL peptide displacement from menin; 290,000 tested, under 10 active; AID 1766, 2009; inconclusive = falling polarisation curve, or a change in total fluorescence; inactive = total fluorescence flat and polarisation flat or rising; no compound was filed as active; the % refers to the polarisation; negative = inhibition;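 also: % of control where 0% means no effect; inhibitors lower the polarisation; unlabelled MLL peptide was the positive control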
TRPV1 potentiator = HTS Assay for Compounds that Act as Potentiators of the Vanilloid Receptor 1 | Transient receptor potential cation channel subfamily V member 1 (Homo sapiens), Q8NER1 | TRPV1-expressing cells, Fluo-8 calcium influx, capsaicin EC20 potentiation; host cell line not named in the record; control for the full effect not named in the record | potentiation, % at 8.33 µM | 320,000 compounds, 0.02% hits | AID 540277, 2011; active means potentiation above 80%; inconclusive means 30% to 80%; inactive means below 30%; also: 0% is about no effect
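TRPV1-expressing cells were cultured overnight at 35.5C and loaded with Fluo-8 calcium dye for 40 to 90 min at room temperature. After a 10 s baseline, compound was added and calcium influx was read kinetically for 3 min (ex 480/em 520 nm).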
An asterisk follows results filed as active; ? = inconclusive; · = no result given; [ ] = remark or other dose.

SMILES | ClpP mod | Sfp PPTase inh | gsp antag | gsp ag | D2 PAM | Menin MLL FP FL | TRPV1 potentiator
CCC(=O)N(C)CCc1cc2c(c(OC)c1/C=N/NS(=O)(=O)c1ccc(C)cc1)OCO2 | · | 12.9% | -13.5% | 2.7%[15.4 µM] | 0.0 | 3.8 | 0.1
CN1C(c2ccc(F)cc2)=CS/C1=C(/C#N)c1nnc2n1-c1ccccc1SC2 | · | · | -17.6% | ? | 3.6 | · | ·
Cc1ccc(C(CNS(=O)(=O)c2ccc([N+](=O)[O-])cc2)N2CCN(C)CC2)cc1 (stereo not given) | · | · | ? | -12.3%[15.4 µM] | -0.3 | · | 11.2
Cc1cccc(CCNS(=O)(=O)c2ccc(S(=O)(=O)N3CCCCC3)cc2)c1 | -0.7% | 17.5% | 5.4% | -18.9% | -21.9 | 2.1 | -1.0
COC(=O)C1CCN(CCCOc2ccc(CN3CCN(c4ccc([N+](=O)[O-])cc4)CC3)cc2)CC1 | · | 14.9% | -6.2% | ? | 29.9 | 0.6 | 1.0
CCCNC(=O)NC(=O)CN1CCCC1c1ccc2c(c1)OCCO2 (stereo not given) | · | 14.7% | -2.0% | -20.8% | -0.3 | 1.2 | 26.8
CC(C)c1cc(=O)oc2c3c4c(cc12)CCCN4CCC3 | 28.2µM* | -24.2% | -1.5% | -8.4% | -2.1 | ? | -17.1
COc1ccc(Cn2nnnc2C(c2ccc(N(C)C)cc2)N2CCC(C)CC2)cc1 (stereo not given) | -1.2% | 0.3% | -6.6% | ? | -40.2 | ? | -8.4
COc1ccccc1N1CCN(C(=O)CSc2ncccc2-c2nc3ccccc3[nH]2)CC1 | ? | 2.6% | -9.9% | -48.0%[inhibitor] | -2.7 | 0.3 | 12.1
CN(CC(=O)Nc1cccc(F)c1)C(=O)Cn1c(=O)oc2ccccc21 | 1.2% | · | 5.2% | -30.6%[inhibitor] | -0.9 | · | 7.2
CCc1ccccc1NC(=S)N(CCCN1CCN(C)CC1)Cc1cccs1 | · | 16.8% | 14.0% | -9.4%[15.4 µM] | -9.1 | -1.6 | -11.5
CN1CCCN(C(=O)c2ccc(Br)cc2)CC1 | · | 1.8% | -0.8% | ? | -7.7 | 1.1 | -1.5
NC(C(=O)O)C1CC(Cl)=NO1 (stereo not given) | · | 8.9% | · | · | · | 0.4 | -0.7
C=CCOc1ccc(/C=C/C(=O)OCC(=O)NCc2ccco2)cc1 | · | · | -2.0% | -8.5%[15.4 µM] | -4.1 | · | -11.9
CC(NC(=O)c1cccc(C(F)(F)F)c1)C1CCCO1 (stereo not given) | -1.8% | 16.1% | 12.0% | -2.4% | 5.2 | -0.2 | -9.2
CC(C)c1onc(C(=O)N2CCCCC2C)c1[N+](=O)[O-] (stereo not given) | -4.9% | 1.0% | 8.2% | -3.5% | 5.4 | -0.5 | -2.2
CC(C)Oc1ccc(C2CC(=O)N(c3ccc(N(C)C)cc3)C2=O)cc1 (stereo not given) | -0.5% | 8.7% | 7.5% | -0.3% | -2.5 | -0.1 | -11.9
Brc1ccccc1-c1cnco1 | · | 16.4% | 14.8% | ? | -5.3 | -6.8 | -4.4
O=C(Cc1ccc(Br)cc1)N1CCN(c2ccc(F)cc2)CC1 | -0.8% | 3.1% | 5.8% | ? | 0.6 | 2.6 | 3.0
O=C(COc1ccc([N+](=O)[O-])cc1)N1CCN(c2nnc(-c3ccccc3)c3ccccc23)CC1 | 0.6% | 12.3% | -4.1% | 20.8% | 1.1 | -3.8 | -12.0
O=C(CSc1oc(-c2ccccc2)nc1S(=O)(=O)c1ccccc1)NCC1CCCO1 (stereo not given) | -10.1% | 11.5% | -21.1% | 19.9% | -15.9 | · | -15.9
Cc1cccc(NCC(=O)N/N=C\c2ccc[nH]2)c1 | · | -5.6% | 0.0% | 26.1% | 0.2 | 2.5 | 11.5
O=S(=O)(NCCCc1ccccc1)c1cccc2nsnc12 | 1.9% | -10.5% | 1.6% | -14.7% | -17.8 | 2.5 | -2.7
COc1ccc(N(C)S(=O)(=O)c2cccc(C(=O)Nc3nnc(C)s3)c2)cc1 | -2.1% | · | ? | -4.3% | -3.4 | · | -5.9

Profiles from above. Screens in order: ClpP mod	Sfp PPTase inh	gsp antag	gsp ag	D2 PAM	Menin MLL FP FL	TRPV1 potentiator
Listed for Brc1ccccc1-c1cnco1 → ·	16.4%	14.8%	?	-5.3	-6.8	-4.4
Listed for NC(C(=O)O)C1CC(Cl)=NO1 (stereo not given) → ·	8.9%	·	·	·	0.4	-0.7
Listed for O=C(Cc1ccc(Br)cc1)N1CCN(c2ccc(F)cc2)CC1 → -0.8%	3.1%	5.8%	?	0.6	2.6	3.0

Later entries:
SMILES | ClpP mod | Sfp PPTase inh | gsp antag | gsp ag | D2 PAM | Menin MLL FP FL | TRPV1 potentiator
O=C(NCc1cc(C(F)(F)F)cc(C(F)(F)F)c1)C12CN(Cc3ccccc3)CC1C(c1cccc([N+](=O)[O-])c1)=NO2 (stereo not given) | 0.5% | -8.7% | -1.1% | · | -45.6 | -0.5 | 7.6
Cc1cc(C(=O)N2CCCc3ccccc32)no1 | 0.2% | 18.6% | 9.0% | 34.0% | -2.6 | 0.5 | 8.4
CC(C)(O)CN(C(=O)c1ccc([N+](=O)[O-])cc1)C1CCCC1 | 1.5% | · | -3.9% | 16.3% | 2.3 | · | ·
COc1ccc(CN2CCN(C(=O)CCC(=O)Nc3nnc(CC(C)C)s3)CC2)cc1F | -0.8% | 10.2% | 9.3% | 20.7% | -2.6 | 5.3 | 4.3
CC1(C)CC(=O)CC(=NCC(=O)O)C1 | 1.0% | -4.5% | -1.0% | -19.5% | 2.6 | 6.3 | 6.0
Cc1cc(/C=N/n2cnnc2)c(C)n1-c1cccc(Cl)c1 | -29.3% | 1.5% | -2.2% | 12.9% | -16.4 | 0.2 | 1.6
CC(=O)c1ccc(N(C(=O)CNC(=O)c2ccco2)C(C(=O)NC2CCCC2)c2cccnc2)cc1 (stereo not given) | · | 8.4% | · | -3.0%[15.4 µM] | 7.1 | 7.8 | -0.8
CN(C(=O)COC(=O)c1cc2c(s1)CCCCC2)C1CCS(=O)(=O)C1 (stereo not given) | -3.5% | 8.8% | 0.7% | -8.4% | -6.3 | · | -2.9
CCNC(=S)N/N=C/c1cc(C)n(-c2ccc(Cl)cc2)c1C | -0.3% | ? | 17.5% | 10.8%[15.4 µM] | -9.7 | 3.7 | -0.6
N#Cc1ccccc1OCC(=O)Nc1c(C(=O)C2CC2)oc2ccccc12 | -29.7% | 19.6% | -3.0% | -10.5% | 18.4 | 1.4 | -0.4
CCC(C)C(NC(=O)OC(C)(C)C)C(=O)NC(C(=O)NC(C)C(N)=O)C(C)C (stereo not given) | 2.1% | 7.2% | -6.6% | -5.4% | -5.6 | 5.6 | -3.3
OCCOCCn1c(-c2ccccc2)nc(=S)c2c1CCCC2 | -6.7% | ? | 1.9% | -18.4% | -11.8 | 5.0 | 6.3
O/N=C(\C[n+]1ccccc1)c1ccc(Br)cc1 | · | -2.6% | 12.6% | -9.5% | -8.2 | -1.8 | 26.2
COc1ccc(NC(=O)C2CCN(S(=O)(=O)c3cccc4nonc34)CC2)cc1OC | · | 2.8% | 2.0% | 0.9% | -3.1 | -0.2 | -16.9
COc1cc(N)c2ncccc2c1SC | 1.7% | · | · | -35.9%[inhibitor] | -13.8 | · | ·
COc1ccc(N2C(=O)CC(NC34CC5CC(CC(C5)C3)C4)C2=O)c(OC)c1 (stereo not given) | 0.7% | -15.4% | 0.7% | -19.0% | 4.9 | 0.9 | 14.6
COc1ccc(NC(=O)COC(=O)/C=C/c2ccccc2[N+](=O)[O-])cc1 | 1.2% | 7.5% | -10.5% | 21.8%[15.4 µM] | 4.7 | 2.5 | 2.2
COc1cccc(CN2CCNC(=O)C2CC(=O)N(C)C2CCCCC2)c1 (stereo not given) | -6.6% | 10.8% | -1.7% | -70.5%[inhibitor] | -7.1 | 7.6 | 15.9
Cc1cc(Cl)c(S(=O)(=O)N2CCN(c3ccc(F)cc3)CC2)cc1OCC(=O)NC1CCCCC1 | -2.4% | 5.3% | ? | 24.7% | -3.9 | 3.4 | 13.0
C=CCn1c(-c2ccc(OC)c(OC)c2)cs/c1=N\c1ccccn1 | -14.2% | 17.8µM* | -7.6% | ? | -13.4 | -0.3 | 3.2
COc1ccc(S(=O)(=O)NCC(c2cccnc2)N2CCN(C)CC2)cc1OC (stereo not given) | -3.0% | 6.4% | 9.4% | -10.1%[15.4 µM] | -4.8 | -7.7 | -1.5
COCCCNCCCCOc1ccc(C)cc1[N+](=O)[O-] | ? | -4.8% | 11.9% | -1.0%[15.4 µM] | -17.0 | 3.4 | -8.7
COc1cc(CC(=O)OCC(=O)Nc2ccc3c(c2)OCCO3)cc(OC)c1OC | -2.4% | 11.5% | 9.9% | ? | -1.1 | 0.3 | 1.6
O=C(COC(=O)c1ccc(OC(F)F)cc1)NCCCN1CCCC1=O | -5.1% | 15.1% | 4.3% | 24.9% | -9.9 | -0.2 | ·
Cc1ccn2c(C(=O)N/N=C/c3ccc(CNC(=O)C(=O)Nc4ccc(C)c(C)c4)o3)c(C)nc2c1 | · | -0.2% | · | · | · | 7.4 | 20.3

Retrieved one by one from the list above:
SMILES | ClpP mod | Sfp PPTase inh | gsp antag | gsp ag | D2 PAM | Menin MLL FP FL | TRPV1 potentiator
COc1cc(CC(=O)OCC(=O)Nc2ccc3c(c2)OCCO3)cc(OC)c1OC | -2.4% | 11.5% | 9.9% | ? | -1.1 | 0.3 | 1.6
COc1cccc(CN2CCNC(=O)C2CC(=O)N(C)C2CCCCC2)c1 (stereo not given) | -6.6% | 10.8% | -1.7% | -70.5%[inhibitor] | -7.1 | 7.6 | 15.9
